Source: PubChem BioAssay
TRPV1 potentiator: potentiators of human vanilloid receptor 1 (TRPV1) | Q8NER1 | TRPV1-expressing cells, Fluo-8 calcium influx, capsaicin EC20 potentiation; host cell line not named in the record; control for the full effect not named in the record | potentiation, % at 8.33 µM | hit rate 0.02% among 320,000 | AID 540277; active means potentiation above 80%; inconclusive means 30% to 80%; inactive means below 30%; note: 0% is about no effect
Target sequence (Q8NER1 whole entry, looked up): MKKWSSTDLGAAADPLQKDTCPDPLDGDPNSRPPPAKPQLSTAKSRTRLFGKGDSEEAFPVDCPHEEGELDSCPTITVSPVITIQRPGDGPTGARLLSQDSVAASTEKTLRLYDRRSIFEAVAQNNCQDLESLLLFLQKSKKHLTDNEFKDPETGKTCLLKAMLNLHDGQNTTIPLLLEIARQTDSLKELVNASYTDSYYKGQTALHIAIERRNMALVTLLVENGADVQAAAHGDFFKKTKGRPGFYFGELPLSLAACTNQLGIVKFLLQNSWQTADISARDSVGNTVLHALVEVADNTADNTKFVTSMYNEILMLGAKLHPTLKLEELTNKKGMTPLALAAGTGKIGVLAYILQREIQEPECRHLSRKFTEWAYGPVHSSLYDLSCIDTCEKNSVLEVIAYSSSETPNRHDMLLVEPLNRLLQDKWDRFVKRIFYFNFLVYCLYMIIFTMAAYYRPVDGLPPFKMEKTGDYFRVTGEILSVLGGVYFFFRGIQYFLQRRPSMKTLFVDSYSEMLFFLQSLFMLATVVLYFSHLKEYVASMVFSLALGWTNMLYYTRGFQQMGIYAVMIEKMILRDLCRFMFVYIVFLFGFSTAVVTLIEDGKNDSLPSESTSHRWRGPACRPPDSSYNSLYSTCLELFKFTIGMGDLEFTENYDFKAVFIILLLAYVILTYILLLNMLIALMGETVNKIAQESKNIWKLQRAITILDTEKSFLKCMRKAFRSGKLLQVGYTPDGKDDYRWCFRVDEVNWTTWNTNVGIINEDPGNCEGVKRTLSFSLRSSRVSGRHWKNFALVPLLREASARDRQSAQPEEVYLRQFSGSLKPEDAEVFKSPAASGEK
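Cells expressing TRPV1 were dye-loaded with Fluo-8 and read kinetically: 10 s baseline, 3 min after compound (agonist portion), then 2 min after EC20 capsaicin (allosteric enhancer portion). Calcium-bound dye fluorescence at 480/520 nm.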
gsp antag: antagonizes gsp, the McCune-Albright syndrome mutation. gsp-mutant cells, cAMP HTRF, 30 min; control for the full effect not named in the record. Potency, µM (highest dose often 76.9 µM), for the others: at the top dose activity change, negative = inhibition, hits mostly inhibitors. hit rate 0.4% among 340,000; active = falling curve of any shape with a large fitted effect; inconclusive = falling curve, mostly with a smaller effect; inactive = flat or rising curve; cell line not stated here;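 note: intracellular cAMP measured with PDE inhibitor Ro 20-1724 present during compound exposure; potency is the fitted concentration of half-maximal effect; % is set by controls: 0 for no effect and ±100 for the full control effect; nearly all actives have a fitted effect of over 65% in size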
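HTRF cAMP measurement after 30 min RT detection following 30 min, 37C compound treatment alongside […] (added as 300 uM solution) in G418-selected cells seeded at 2000/well and grown 16–24 h.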
Sfp inh: Sfp phosphopantetheinyl transferase inhibition | Q9F4F7 | Biochemical Sfp PPTase activity, qHTS | Potency, µM, without a hit: max response, negative = inhibition, hits mostly inhibitors | hit rate 3.5% among 310,000 | AID 1490; active = well fitted inhibition curve with a large enough effect; inconclusive = small, poorly fitted or top-dose-only effect, or another doubt; inactive = no such curve, though single readings can be large or run the other way;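 note: the enzyme is Sfp with the accession as filed and its product quenches rhodamine fluorescence; potency is the fitted concentration of half-maximal effect; 0% = enzyme reaction without inhibitor and -100% = no enzyme wells; top concentration of the series not given in the record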
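Sfp 15 nM + cpd, 15 min RT; start w/ rhodamine-CoA 5 uM, BHQ-2-YbbR 12.5 uM (final); 50 mM Hepes pH 7.6, 10 mM MgCl2, 0.01% NP-40, 0.01% BSA; read 525/598 nm at 0 and 30 min.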
ClpP mod: qHTS Assay for Activators of ClpP | purified B. subtilis ClpP, FRET peptide cleavage, 20 min | Potency, µM (top dose mostly 57.5 µM), inactives show at the top dose activity change, negative = active | hit rate 1.9% among 340,000; active = well fitted falling curve with a large enough effect; inconclusive = small, poorly fitted or top-dose-only effect; inactive = no such curve, though single readings can be large or run the other way; note: potency is the fitted concentration of half-maximal effect; the source files actives as falling curves though it sought activators and does not explain the sign; nearly all actives have a fitted effect of over 65% in size; many hits overshoot -100%
Target sequence (P80244 whole entry, looked up): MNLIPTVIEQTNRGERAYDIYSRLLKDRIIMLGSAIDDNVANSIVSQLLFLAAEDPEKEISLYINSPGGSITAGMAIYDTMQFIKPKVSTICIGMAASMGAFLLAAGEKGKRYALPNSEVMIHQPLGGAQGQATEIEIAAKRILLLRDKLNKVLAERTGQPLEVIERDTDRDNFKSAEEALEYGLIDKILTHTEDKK
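FRET quenching reversal measured ClpP activation: 10 microg/mL B. subtilis ClpP at pH 8 with the FRET-FV decapeptide, read at 430 nm after 320 nm excitation. The 20-min minus 0-min signal was scaled between DMSO/no-enzyme wells and ADEP (5.8 microM final).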
gsp ag: agonists of gsp mutant (McCune-Albright syndrome). gsp mutant cells, cAMP HTRF, 30 min; control for the full effect not named in the record. Potency, µM (titrated, usually from 76.9 µM), inactives show top-dose activation (cAMP increase), most hits filed as activators. hit rate 0.13% among 340,000; active = well fitted activation curve with a large enough effect; inconclusive = small, poorly fitted or top-dose-only effect, or another doubt; inactive = no such curve, though single readings can be large or run the other way; cell line not stated here;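 note: phosphodiesterase inhibitor Ro 20-1724 added with compounds to block cAMP breakdown; potency is the fitted concentration of half-maximal effect; nearly all actives have a fitted effect of over 60% in size; about a fifth of the inactives were tested at one dose only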
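Cells in DMEM/10% FBS with G418 were pretreated with compounds in DMSO plus […] (300 uM stock) for 30 min at 37C. cAMP was measured by HTRF (cAMP-d2 plus anti-cAMP antibody-K) after 30 min at room temperature.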
Menin-MLL FL inh: displaces fluorescein MLL peptide from human menin. Fluorescence polarization, fluorescein-MLL peptide displacement from menin. 290,000 tested, under 10 active. FP activity change, % at 61.4 µM; inconclusive = falling polarisation curve, or a change in total fluorescence; inactive = total fluorescence flat and polarisation flat or rising; no compound was filed as active; the % refers to the polarisation; negative = inhibition;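 note: % of control where 0% means no effect; inhibitors lower the polarisation; unlabelled MLL peptide was the positive control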
CtBP-E1A blk: CtBP/E1A binding inhibition; AlphaScreen GST-E1A/His-CtBP binding, 1536-well; hits give low values; control for the full effect not named in the record; activity change, % (concentration not given with the values); hit rate 0.49% among 340,000; in the data active means activity change below about -65%; inconclusive means about -30% to -65%; inactive means above about -30%; note: % is set by controls: 0 for no effect and ±100 for the full control effect
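Steps: dispense buffer (Tris pH 8.0, NaCl 300 mM, TCEP 1 mM, BSA, Tween 20); add 5X protein mix (GST-E1A, His-CtBP, 125 nM each); pin 23 nL compound; 2 h at 37 °C, dark; add 5X beads (50 ug/mL); 1 h; read.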
Starred values were filed as active, the others as inactive; ? = inconclusive; . = not tested or not shown; [ ] = dose if it differs, or a comment.

SMILES	TRPV1 potentiator	gsp antag	Sfp inh	ClpP mod	gsp ag	Menin-MLL FL inh	CtBP-E1A blk
Cc1ccccc1C(=O)OCC(=O)Nc1cccc(S(=O)(=O)N2CCCCC2)c1	.	.	.	-2.4%	-2%	.	-5
CNCCCOc1ccc(C)cc1Br	-2	6%	-1%	0.2%	24%	3.1	7
COc1ccc(CC(=O)NNC(=O)c2cc(C)oc2C)cc1OC	-1	3%	.	-3.3%	9%[15.4 µM]	.	-21
COc1ccc(-c2noc(N3CCC(C(=O)Nc4cc(OC)c(OC)c(OC)c4)CC3)n2)cc1	6	-6%	21%	-0.3%	?	1.2	19
Cc1cc(NC(=O)C(C)SCC(=O)Nc2cc(C(F)(F)F)ccc2N2CCCCC2)no1 (stereo not drawn)	0	?	.	-19%	-30%[inhibitor]	.	5
COc1ccc(N2CCN(C(=O)c3cc(C4CC4)nn3-c3ccccc3)CC2)cc1	-3	-12%	.	0.0%	-20%	.	-28
CCN(CC)C(=O)c1ccc2c3c(cccc13)C(=O)N(CCc1ccc(OC)c(OC)c1)C2=O	7	?	2%	1.2%	-10%	2.6	6
Cc1ccc(C)c(NC(=O)CN(C)C(=O)c2cccc(Oc3ccccc3)c2)c1	.	?	.	0.4%	-21%	.	.
CSc1ccc(C2NC(=O)c3c(sc4c3CCN(C)C4)N2)cc1 (stereo not drawn)	2	5%	?	4.6%	-6%	?	1
COCCCNC(=O)C1CC(=O)N(CCc2ccc(F)cc2)C1 (stereo not drawn)	4	7%	27%	1.7%	2%[15.4 µM]	-4.9	-2
C/C(=N\NC(=O)c1ccccc1)C1C2C=CC(C2)C1(C)C (stereo not drawn)	0	3%	5%	0.7%	-4%[15.4 µM]	2.3	6
O=C(Cn1nc(-c2ccc(Cl)cc2)ccc1=O)N1CCN(c2ccccc2)CC1	13	-11%	-7%	0.8%	-50%	1.7	-4
CC(=O)N(C)N(C)c1cc(C)nc(N)n1	-4	-6%	7%	-11%	9%[15.4 µM]	2.8	10
CCN1CCN(C2=NC(=O)/C(=C/c3ccc(C)o3)S2)CC1	5	-8%	16µM*	-3.1%	17%	?	-7
Cc1ccc(S(=O)(=O)N(C)CC(=O)Nc2cccc3c2CCCC3)cc1	-20	-18%	2%	1.2%	-27%	3.0	1
Cc1sc(NC(=O)CN2CCOCC2)c(C#N)c1C	-12	2%	17%	0.3%	6%	14	.
CC(C)C(=O)Nc1c(O)c2ccccc2[nH]c1=O	-5	-1%	-5%	.	14%	5.4	4
O=C(NC(=S)Nc1ccc(CN2CCOCC2)cc1)c1ccco1	-4	8%	-5%	.	4%[15.4 µM]	6.4	-11
CC(C(=O)N1CCc2ccccc21)n1cccc1 (stereo not drawn)	12	5%	7%	-0.5%	12%	2.9	-1
Nc1nc(SCC(=O)N2CCCC2)[nH]c(=O)c1NC(=O)c1ccco1	?	6%	15%	-0.7%	?	-0.6	2
CC1(C)NC(=O)N(CC(O)CN(c2cccc([N+](=O)[O-])c2)S(=O)(=O)c2ccccc2)C1=O (stereo not drawn)	6	4%	4%	.	3%[15.4 µM]	.	-10
Cc1nn(C)c(C(=O)N2CCOCC2)c1Cl	?	8%	-28%	-0.2%	-46%[inhibitor]	-3.5	9
CCOc1ccccc1NC(=O)c1nc(-c2ccccc2)oc1C	-12	-7%	-1%	79%	-5%	1.0	1
O=C(c1cccc(C(F)(F)F)c1)C1CCCN(Cc2cccn2-c2ncccn2)C1 (stereo not drawn)	9	9%	15%	-0.4%	-1%	-1.5	-9
CCC(C)N1C(=O)CCC1C(=O)O (stereo not drawn)	2	1%	12%	1.5%	?	2.0	4
Cc1nn(C(=O)N2CCCCC2)c(C)c1CN1C(=O)c2ccccc2C1=O	-5	6%	8%	-0.9%	4%	15	4
CCOC(=O)N1CCN(C(=O)CCSc2ccccc2)CC1	-5	11%	-4%	0.1%	15%	2.0	-1
Cc1cccc(NC(=O)CSc2nnnn2-c2ccc3c(c2)OCCO3)n1	-15	-7%	-11%	.	10%[15.4 µM]	2.0	6
O=C(OCC(=O)N1CCOCC1)c1ccc2[nH]c3c(c2c1)CCCC3	14	-6%	-8%	-2.4%	21%	2.2	-2
O=C(CC(=O)Nc1ccccc1C(F)(F)F)Nc1ccccc1C(F)(F)F	2	-3%	10%	1.3%	-17%	-3.3	11
Cc1cccn2c(=O)c(C=O)c(Nc3ccc(S(N)(=O)=O)cc3)nc12	1	-10%	13%	-0.4%	11%[15.4 µM]	3.1	-21
COc1cc(C(=O)N/N=C/c2sccc2C)cc(OC)c1OC	7	15%	15%	.	5%[15.4 µM]	-1.3	-23
Cc1ccc(CSc2nnc(SCC(=O)N/N=C/c3ccc(C(=O)O)cc3)s2)cc1	-5	-6%	3%	.	-10%[15.4 µM]	-0.4	-5
CCN(CC)CCCNC(=O)c1cn(-c2cccc(OC)c2)c(=O)c2ccccc12	9	-5%	-10%	-1.5%	17%[15.4 µM]	-5.8	-5
CCOC(=O)N1CCN(C(=O)CSc2nc3c([nH]c4ccccc43)c(=O)n2C)CC1	?	0%	-7%	-5.9%	-16%	-0.2	7
COc1ccccc1N1CCN(Cc2cnc3ccc(Cl)cn23)CC1	-9	-3%	0%	-3.3%	9%	0.2	.

Grouped by structure: the entries above containing a furan ring, fused or not
SMILES	TRPV1 potentiator	gsp antag	Sfp inh	ClpP mod	gsp ag	Menin-MLL FL inh	CtBP-E1A blk
COc1ccc(CC(=O)NNC(=O)c2cc(C)oc2C)cc1OC	-1	3%	.	-3.3%	9%[15.4 µM]	.	-21
CCN1CCN(C2=NC(=O)/C(=C/c3ccc(C)o3)S2)CC1	5	-8%	16µM*	-3.1%	17%	?	-7
O=C(NC(=S)Nc1ccc(CN2CCOCC2)cc1)c1ccco1	-4	8%	-5%	.	4%[15.4 µM]	6.4	-11
Nc1nc(SCC(=O)N2CCCC2)[nH]c(=O)c1NC(=O)c1ccco1	?	6%	15%	-0.7%	?	-0.6	2

The results go on:
SMILES	TRPV1 potentiator	gsp antag	Sfp inh	ClpP mod	gsp ag	Menin-MLL FL inh	CtBP-E1A blk
CCC(C)Nc1nnnc2c1sc1nc3c(cc12)COC(C)(C)C3 (stereo not drawn)	0	-10%	-3%	-2.6%	5%	0.7	-15
CCCCn1c(N)c(N(CC(C)C)C(=O)c2cccs2)c(=O)[nH]c1=O	9	17%	.	-1.6%	-29%	.	6
CC1CCN(c2oc(-c3ccco3)nc2S(=O)(=O)c2ccccc2)CC1	-1	-16%	-9%	0.7%	2%[15.4 µM]	.	-6
CC(=O)Nc1ccc(C(=O)N/N=C/c2ccccc2OC(=O)c2ccc(Cl)cc2)cc1	8	-5%	26%	2.4%	0%	-0.8	?
Cc1ccc(-c2noc(CN(C(=O)c3ccc4c(c3)OCO4)C(C)C)n2)cc1	-6	-8%	-1%	.	-9%	1.4	-16
COc1ccc(OC(C)C(=O)N(C)Cc2nc(-c3ccccc3)no2)cc1 (stereo not drawn)	-4	12%	16%	.	-5%[15.4 µM]	1.6	-12
O=C(COC(=O)c1ccc(F)cc1)Nc1ccc2c(c1)OCO2	.	4%	.	-1.9%	?	.	4
COc1ccc(S(=O)(=O)N(C)c2ccc(C(N)=O)cc2)cc1	-7	-9%	12%	0.7%	-6%	2.3	2
O=[N+]([O-])C(C1CCS(=O)(=O)C1)C1CCS(=O)(=O)C1 (stereo not drawn)	0	-3%	23%	.	1%[15.4 µM]	-1.4	.
N#Cc1c(-c2ccc(F)cc2)cc(-c2cccnc2)nc1N	-1	5%	27%	?	-31%[inhibitor]	1.6	2
Cc1cc(C(F)(F)F)n(-c2nc(C(=O)N/N=C/c3ccc(F)cc3)cs2)n1	-7	-7%	13%	-0.4%	-7%	1.4	-1
C=CCn1c(SCN2C(=O)c3ccccc3C2=O)nc2ccc(Cl)cc2c1=O	3	-1%	5%	-2.9%	-1%	1.7	-3
Cc1ccc(-c2nc(NCCN3CCOCC3)c3ccccc3n2)cc1	-9	-14%	-2%	-0.6%	-4%	-0.8	-5
O=C(O)CN1C(=O)/C(=C/c2cccc(Cl)c2)Oc2ccccc21	-11	-16%	7%	.	4%	6.5	-9
O=C(NCCCN1CCCC1=O)c1cccc(S(=O)(=O)Nc2ccc(Br)cc2)c1	30	2%	.	-2.1%	?	.	-20
CC1CCCC(NC(=O)CSC2=Nc3ccccc3C3CC=NN23)C1C (stereo not drawn)	2	1%	.	-2.1%	-7%	.	3
CSCc1ccc(C(=O)NC(C)c2ccc(-n3ccnc3)cc2)cc1 (stereo not drawn)	-18	-7%	7%	-1.3%	18%	.	0
CSc1ccc(/C=C2\CCn3c2nc2cc(C(=O)O)ccc2c3=O)cc1	-9	?	1%	-0.1%	2%[15.4 µM]	-2.6	11
O=C(CN1CCCc2ccccc21)NCCc1ccc(Cl)cc1	-2	-7%	?	.	-10%[15.4 µM]	5.8	-10
Cc1ccc(Cl)cc1N1CCN(C(=O)c2ccc(NS(=O)(=O)c3c(C)noc3C)cc2)CC1	25	?	-1%	-3.5%	1%[15.4 µM]	2.0	-20
Cc1ccc(S(=O)(=O)N(C)C)cc1NC(=O)CN1C(=O)NC2(CCc3ccccc32)C1=O (stereo not drawn)	.	.	.	-1.1%	-31%[inhibitor]	.	-6
O=C1CCCN2N=C(SCC(=O)Nc3ccc(OC(F)(F)F)cc3)SC2=N1	4	5%	14%	.	-6%[15.4 µM]	3.0	0
COC(=O)N/N=C/c1c(C)nn(-c2cccc(Cl)c2)c1Cl	-14	-13%	0%	-17%	-43%[inhibitor]	0.4	0
COC(=O)N(NC(=O)C(O)(c1ccccc1)c1ccccc1)c1ccccc1	-6	5%	22%	-4.3%	3%	4.6	-9
CCn1c(-c2csc(-c3ccccc3)n2)n[nH]c1=S	1	-6%	-1%	-4.3%	22%	0.0	-4
COc1cccc(-c2ncc3ccccc3c2COC(=O)c2ccc(F)cc2)c1	1	-12%	.	?	.	.	-18
COc1ccc(C(=O)OCC(=O)NC(=O)NC(C)C)cc1OC	-7	8%	-2%	-9.7%	11%	-0.8	-11
Cc1ccc(S(=O)(=O)N2CCN(C3CCN(Cc4ccccc4)CC3)CC2)cc1	-10	5%	9%	-4.2%	-47%[inhibitor]	4.6	8
